# Ba CapD inh = Bacillus anthracis CapD inhibitors, primary screen, biochemical, fluorescence intensity; z-score (test concentration not listed); purified CapD enzyme, fluorescence intensity read-out; stronger effect = lower value; some hits fall short of the stated cut; hit rate 0.23% among 140,000;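 active = z-score under -4 in either of two replicates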;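 note: stock transfer was 100 nL into about 40 µL; score is relative to mean and spread of the plate; one replicate is shown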
# AID504770 = growth inhibition of E. coli YBA685, primary screen, V. cholerae RctB inhibitors; E. coli YBA685 rctB-dependent plasmid, OD600 growth, 3 h; stronger effect = lower value; z-score (test concentration not listed); hit rate 0.27% among 130,000;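 active = z-score under -2 on both plates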;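 note: wells of about 30 µL received 100 nL stock; score is relative to mean and SD of the test wells; the first replicate is given; strong numbers were not always called active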
# The depositor's hits bear a star; nt = not tested or not shown; & = joins results of further samples. Random draw from the library, and some 0.37% of all compounds hit somewhere here.
mol | Ba CapD inh | AID504770
Cc1ccc(C(=O)N/C(=C/c2ccccc2)C(=O)NCc2ccco2)cc1 | nt | -0.2
Cc1ccc(NC2OC(CO)C(O)C2O)cc1C (stereo not given) | 0.565 | 1.25
CCC(Oc1ccccc1)C(=O)N1CCCCC1C (stereo not given) | -0.84 | 2.05
CS(=O)(=O)N(CC(=O)O)C1CCCCC1 | nt | -0.05
CCCCn1c(SCC(=O)N2CCCCCC2)nnc1-c1ccoc1C | nt | 0.05
Cc1ccc(S(=O)(=O)Nc2cc3c4c(oc3c3ccccc23)CCC(C)C4)cc1 (stereo not given) | 0.22 | nt
CSc1nc(C)c(C)c(=O)[nH]1 | 0.62 | 0.4
Cc1oc(C(C)(C)C)cc1C(=O)NC(Cc1ccccc1)C(=O)O (stereo not given) | nt | 0.15

# (further entries)
mol | Ba CapD inh | AID504770
CCOC(=O)C1=C(O)/C(=C/c2ccc([N+](=O)[O-])cc2)SC1=Nc1ccccc1 | -0.26 | nt
Cc1ccc(Sc2c(F)c3c(c(F)c2Sc2ccc(C)cc2)C(=O)c2ccccc2C3=O)cc1 | -0.565 | nt
COC(=O)N1CCN(c2nc(-c3ccccc3)cs2)CC1 | -0.505 | -0.6
O=S(=O)(c1ccc2nc(CO)[nH]c2c1)c1ccc2nc(CO)[nH]c2c1 | 73.3 | 0.05
CC1=C(C(=O)Nc2nc3ccccc3s2)C(c2ccc(F)cc2)C2=C(CC(C)(C)CC2=O)N1 (stereo not given) | 45.6 | nt
CSc1nnc(-c2ccccc2N)c(=O)[nH]1 | -1.16&-1.81 | -0.45&1.95&0.25
CCCNC(=O)c1[nH]c2ccccc2c1Sc1ccc(C)cc1 | 0.065 | 0.6
Cc1ccc2c(=O)c(C(=O)NC3CCCC3)c[nH]c2c1 | nt | -0.3

# Continuation.
mol | Ba CapD inh | AID504770
C#CC1(NC(N)=O)CCCCC1 | 0.675 | nt
COC(=O)c1ccc(C)c(NC(=O)c2ccc(C3SCC(=O)N3Cc3ccccc3)cc2)c1 (stereo not given) | 0.57 | -0.2
N#CCCN=Nc1c(O)n(CO)c2ccccc12 | nt | 1.3
N#CCC(=O)NCC1CCCO1 (stereo not given) | -0.585 | -0.05
Cc1cc2c(cc1Br)NC(=O)/C2=N\N1C(=O)c2ccccc2C1=O | 0.165 | 0.8
Cc1ccc2c(cnn2C(=O)CCCC(=O)N2CCN(c3ccccc3)CC2)c1 | 0.545 | 1.1
O=S(=O)(NCCc1ccccn1)c1cccc2nsnc12 | -1.45 | 0
O=C(O)C1CCN(C(=O)c2sc3ccccc3c2Cl)CC1 | -1.21 | 0.15

# The listing continues.
mol | Ba CapD inh | AID504770
c1ccc(CSc2ncnc3nc[nH]c23)cc1 | 0.195 | -0.2
Cc1nn(-c2ccccc2)cc1/C=N/NS(=O)(=O)c1ccccc1 | nt | -0.1
COc1cc(NC(=O)c2ccco2)c(OC)cc1NC(=O)CSc1ncc(-c2ccc(F)cc2)[nH]1 | nt | 3.1
CCOC(=O)c1sc(SC)c(C(C)=O)c1C | -0.765 | nt
O=C(C1=CC=CN2CCS(=O)(=O)N=C12)N1CCN(c2ccccn2)CC1 | nt | 0.45
Cc1cc(C)c(C(=O)N2CCOCC2)c(CC(C)(C)C(=O)O)c1 | -0.685 | nt
Cc1ccc(C(=O)Nc2c(C(C)(C)C)nn(C)c2C(C)(C)C)cc1 | -0.33 | 1.9
COCc1cc(C)nc2sc(C(=O)N(C)c3ccccc3)c(N)c12 | nt | 0.1

# Continued.
mol | Ba CapD inh | AID504770
COc1ccc(C2CC(=O)Nc3cc(OC)c(OC)cc32)cc1 (stereo not given) | -0.08 | -1.25
CCn1c(=NC(=O)c2ccc(Cl)s2)sc2ccccc21 | nt | -0.4
CCN(C(=O)c1ccc2c(SCC(=O)O)c3c(nc2c1)CCC3)c1cc(Cl)ccc1OC | -2.13 | 0.2
COC(=O)C1=C(C(=O)OC)SC(=C2C(=S)C(C)(C)N(C(=O)CC(C)C)c3ccc(C)cc32)S1 | 0.615 | nt
O=C(CNC(=O)c1ccco1)Nc1ccc(Cl)cc1 | nt | -0.75
COc1cc(C=C2C(=O)N(C)C(=O)N(C)C2=O)ccc1Oc1nc(N2CCOCC2)nc(N2CCOCC2)n1 | -0.16 | nt
O=C(Nc1cccc(C(F)(F)F)c1)Nc1ccccc1CC[N+](=O)[O-] | 0.08 | nt
N#Cc1c(Cl)cccc1Oc1ccc(S(=O)(=O)NC2CCCCC2CO)cc1 (stereo not given) | -0.63 | nt

# Remaining list, next part:
mol | Ba CapD inh | AID504770
O=C1c2ccccc2C(=O)c2[nH]c(-c3c(F)c(F)c(F)c(F)c3F)nc21 | 0.085 | -0.55
CC(=O)NCCn1c(SCC(=O)NC2CCCCC2)nc2ccccc2c1=O | -0.49 | -0.95
CC(C)C(=O)NS(=O)(=O)c1ccc(NC(=O)c2ccco2)cc1 | nt | -0.75
Clc1cc(Cl)c(OCCCCn2cncn2)c(Cl)c1 | -0.11 | -0.1
O=C(Nc1ccc2oc(-c3cccc(Br)c3)nc2c1)c1ccc2c(c1)OCCO2 | 11.8 | nt
C=CCn1c(=O)n(CC=C)c(=O)n(Cc2ccc(Cl)cc2)c1=O | nt | 2.3
COC(=O)C1=C(C(=O)OC)SC2(S1)C(C(=O)OC)=C(C(=O)OC)SC1=C2c2cc(C)ccc2N(Cc2ccccc2)C1(C)C | -0.415 | nt
O=C1N=c2ccccc2=C1c1sc(NS(=O)(=O)c2ccccc2)nc1O | 57.3 | -0.45

# Continuation:
mol | Ba CapD inh | AID504770
CC1Cc2ccccc2N1C(=S)NC(=O)c1ccco1 (stereo not given) | nt | -0.8
CC1CN(CCC(C)c2ccccc2)CC(C)O1 (stereo not given) | -0.035 | -0.7
O=C(Nc1cccc(Br)c1)N1CCCC(CN2CCc3ccccc3C2)C1 (stereo not given) | -0.525 | -1.4
COCCn1ccc2nc(C)c(C(=O)NCCC(C)C)cc2c1=O | 102 | -1.3
Cn1c(O)c(N=Nc2ccc(S(=O)(=O)N3CCOCC3)cc2)c(=O)n(C)c1=O | nt | -0.6
Cn1c(=O)c2c(ncn2Cc2ccc(Cl)cc2Cl)n(C)c1=O | -1.25 | nt
Cn1c(CCNC(=O)Cc2ccccc2)nc2ccccc21 | -0.39 | -0.25
O=S1(=O)C=CC2ON=C(c3c(Cl)cccc3Cl)C21 (stereo not given) | 0.35 | -1.55

# Continuation:
mol | Ba CapD inh | AID504770
O=S(=O)(NCc1ccccc1)c1cccc(Cl)c1 | nt | -1.35
COc1cc(NC(=O)C(Cc2ccccc2)n2cccc2)cc(OC)c1 (stereo not given) | -0.015 | 0.3
N#CCSc1nnc(-c2ccccc2)n1-c1ccccc1 | nt | -0.8
CN1C2CCC1/C(=C\c1cccnc1)C(=O)/C2=C/c1cccnc1 | -2.66 | -0.4
Cc1cccc(-c2nnc(C3CCNCC3)o2)c1 | -0.295 | -0.05
C=CCNc1nc(C(=O)OCc2ccc(C#N)cc2)cs1 | nt | 1.6
O=C(O)CC(c1ccc(F)cc1)c1ccco1 (stereo not given) | nt | 0.5
CC(C)(C)c1ccc(C(=O)Nc2c3c(nn2-c2ccc(Cl)cc2)CSC3)cc1 | -0.37 | -0.8

# The list continues.
mol | Ba CapD inh | AID504770
COc1ccc(OCC(O)CNC2CCN(c3ncnc4scc(-c5ccccc5)c34)CC2)cc1 (stereo not given) | -0.1 | nt
CC(=O)C1=NN(c2ccccc2C)C2(S1)c1ccccc1C(c1cc(C)ccc1C)=NN2c1ccccc1 (stereo not given) | -0.385 | nt
Cc1cc(C)cc(-n2c(C)cc(/C=C(\C#N)C(=O)Nc3ccccc3)c2C)c1 | 0.32 | 0.75
COc1ccc(CNC2=CC(=O)CC(C)(C)C2)cc1 | 0.875 | -0.15
O=C(Nc1c2c(nn1-c1ccccc1)CSC2)C1CCCCC1 | nt | 0.05
CCC(C)c1ccc(NC(N)=S)cc1 (stereo not given) | nt | 0.85
Cc1ccc(C2/C(=C(\O)c3ccccc3)C(=O)C(=O)N2c2ccccn2)cc1 (stereo not given) | -0.8 | 0.05
CCCc1c(O)ccc2c(=O)cc(C(=O)O)oc12 | -0.96 | nt

# Entries of single compounds, looked up by structure:
# CC(=O)C1=NN(c2ccccc2C)C2(S1)c1ccccc1C(c1cc(C)ccc1C)=NN2c1ccccc1 (stereo not given) in the list: Ba CapD inh: -0.385; AID504770: nt
# CCC(C)c1ccc(NC(N)=S)cc1 (stereo not given) in the list: Ba CapD inh: nt; AID504770: 0.85
# O=C(Nc1c2c(nn1-c1ccccc1)CSC2)C1CCCCC1 in the list: Ba CapD inh: nt; AID504770: 0.05

# Continuation:
mol | Ba CapD inh | AID504770
CCSC(SCC)[C@H](O)[C@@H](O)[C@@H](O)CO | -0.105 | nt
O=S(=O)(NCc1ccccc1)c1cccs1 | nt | 1.4
O=C(c1cccc(F)c1F)N1CCc2c([nH]c3ccccc23)C1c1ccc2c(c1)OCO2 (stereo not given) | -0.36 | nt
O=S(=O)(c1ccc(F)cc1)N(Cc1ccc2c(c1)OCO2)c1ccc(F)cc1 | 0.525 | -0.4
Cc1cc(C)nc(SCC(=O)OCC(=O)Nc2ccc3c(c2)CCC3)n1 | nt | 1.2
CC(C)Cc1cc(C(=O)Nc2cccc(O)c2)no1 | -0.545 | 0.9
COc1ccc(S(=O)(=O)N2Cc3ccccc3CC2C(=O)NC(C)(C)C)cc1 (stereo not given) | 0.365 | 2
Cc1ccc(-c2nn(-c3ccccc3)c3[nH]c(C)cc(=O)c23)cc1 | nt | 0.2

# (continued)
mol | Ba CapD inh | AID504770
CC(C)(C)c1ccc(C(=O)N2CCN(C(=O)C3CCCCC3)CC2)cc1 | 0.975 | -0.35
O=C(CC1Nc2ccccc2NC1=O)Nc1ccccc1Cl (stereo not given) | 0.85 | 0.05
NC(=O)CSc1cn(Cc2ccccc2)c2ccccc12 | -0.11 | -0.95
CSc1nc(N)nc(C(C)(C)C)n1 | 0.3 | nt
COC(=O)CON1C(=O)CN(C(=O)c2ccccc2)C1c1cccc([N+](=O)[O-])c1 (stereo not given) | 0.125 | nt
CC(C)CC(NC(=O)C1CCC(C)CC1)C(=O)Nc1ccc2c(c1)OCCO2 (stereo not given) | 0.225 | -0.1
Cc1[nH]c(=O)n(C(C)(C)C)c(=O)c1Br | nt | -0.95
CCc1ccc(OCC(=O)N2CC(C)OC(C)C2)cc1 (stereo not given) | -0.315 | -0.5

# (further entries)
mol | Ba CapD inh | AID504770
Cc1oc2c(c1C(=O)N1CCC(C)CC1)C(=O)c1ccccc1C2=O | 11.6 | 0.2
COC(=O)Cc1c(O)ccn(CCc2ccc(S(N)(=O)=O)cc2)c1=O | -0.095 | nt
Cn1c(=O)c2c(-c3ccc(C(C)(C)C)cc3)n(-c3cc(N)c(Cl)cc3Cl)cc2n(C)c1=O | -0.305 | 0.05
COCCn1c(SCC(=O)N2CCCCC2C)nc2sc(C)c(C)c2c1=O (stereo not given) | nt | 0.1
O=C(CCCCCN1C(=O)/C(=C/c2ccc(Br)cc2)SC1=S)Nc1nccs1 | -0.095 | nt
Cc1nn(-c2ccccc2)nc1-c1nnc(-c2ccccc2)o1 | 73.6 | nt
CCOC(=O)c1ccc(Nc2nc3nonc3nc2N2CCC(Cc3ccccc3)CC2)cc1 | -0.24 | nt
O=C(NCc1ccc(-c2cccs2)s1)c1ccc(Cl)cc1 | 0.265 | 1.85

# Remaining list, next part:
mol | Ba CapD inh | AID504770
CCOc1ccccc1-n1nnnc1SCC(=O)c1ccc[nH]1 | nt | 0
O=C(Nc1cc(OCC(F)(F)F)cc(OCC(F)(F)C(F)F)c1)c1cccnc1 | 0.17 | -0.6
CC(C)(C)OC(=O)Nc1ccc2c(c1)OCO2 | 0.035 | -0.3
COc1ccc(C(=O)CSc2nc(-c3cccc(C)c3)ns2)cc1 | -0.005 | -1.5
CC(C)(C)c1ccc(CN2CCN(S(=O)(=O)c3ccccc3Br)CC2)cc1 | -0.095 | nt
O=C(Oc1cc(=O)n(-c2ccccc2)c2ccccc12)c1ccccc1 | 1.98 | 0.5
CN(C)c1ccc(NC(=O)CC2CCCCC2)cc1 | 0.27 | 0
COc1cccc(C(=O)N2CCN(C(c3ccccc3)c3ccccc3)CC2)c1OC | 0.15 | 0.5

# Carrying on:
mol | Ba CapD inh | AID504770
O=S1(=O)N=CN(Cc2ccccc2)c2ccccc21 | nt | 0.15
Clc1cc(Sc2ccc(Br)cc2)nnc1-c1ccccc1 | -0.33 | nt
CCOC(=O)c1c(NC(=O)c2cccc(Cl)c2)sc(C(=O)Nc2ccccc2OCC)c1C | 0.205 | nt
CCOC(=O)c1sc2nc(C3CC3)cc(-c3ccc(OC)cc3)c2c1N | 2 | -0.35
Cc1cc(C(=O)Nn2cnnc2)cs1 | -0.36 | 1.8
Clc1ccnc(-c2ccccc2)n1 | 0.155 | 0
CCOc1ccc(-n2c(O)c(C3=c4ccccc4=NC3=O)sc2=O)cc1 | 6.88 | 0.4
CCOC(=O)c1ccc(N=Cc2ccc3ccccc3c2)cc1 | 19.8 | -1.05

# Next section:
mol | Ba CapD inh | AID504770
COCCn1c(=NC(C)=O)sc2ccccc21 | -0.02 | -0.1
O=S(=O)(NC(=NCCc1ccccc1)Nc1cccc(Cl)c1)c1ccccc1 | 0.235 | nt
CC(C)CCNS(=O)(=O)c1ccccc1 | nt | 0.75
Cc1cc(SCC(=O)Nc2cccc(C#N)c2)nc2ccccc12 | nt | 0.85
CNC(=O)CSc1nnc(-c2ccccc2)n1C | 0.23 | -0.35
O=C(COC(=O)C1CCCN1S(=O)(=O)c1cccc2nsnc12)c1ccco1 (stereo not given) | nt | 1.15
Cc1ccc(S(=O)(=O)c2cn(Cc3cccc(Cl)c3)c3cc4c(cc3c2=O)OCO4)cc1 | 0.05 | 1.8
Cc1csc(NC2=NCCCCC2)n1 | 0.245 | -0.75
CCOC(CNCc1ccco1)OCC | nt | 0
O=C(CSCCN1C(=O)c2ccccc2C1=O)NCc1cccs1 | nt | 2.2

# High-throughput results (PubChem)
